Biofilm kill mix = mixtures killing C. albicans biofilm; inhibition, % at 7.6 µM; C. albicans biofilm persisters + clotrimazole, fluorescence viability; primary screen in compound mixtures of four per well; 120,000 compounds, 0.02% hits;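 active means inhibition above 30.3% in the primary screen of four-compound pools, then above 30% when the compound was retested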;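 further: compounds exposed to preformed 24 h biofilms for 48 h; the number belongs to the whole pool; some results filed as inactive read as strong as hits; inactives centre near 12; 0% = biofilm with clotrimazole alone and 100% = kill control; retested singly at about 60 µM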
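Assay system: C. albicans biofilms / Medium: RPMI/MOPS medium, pH 7.0 / Schedule: biofilm formation 24 h, compound exposure 48 h, 37 °C / Measured by: Alamar Blue fluorescence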
An asterisk follows results filed as active. Not all compounds are listed; rates above refer to the full screens.

SMILES | Biofilm kill mix
Cc1ccccc1NS(=O)(=O)c1cc(C(=O)Nc2cccc([N+](=O)[O-])c2)ccc1C | 14
Cc1cccc(NC(=S)NCCN2CCOCC2)c1C | 10
O=C(N/N=C(\Cc1ncc[nH]1)c1ccccc1)c1ccccc1 | 24
COc1cccc(CNC(=O)C2CCC(CNc3c(N4CCC(C)CC4)c(=O)c3=O)CC2)c1 (stereo not given) | 14
COC(=O)c1ccc(/C=N/Nc2nc3ccccc3[nH]2)cc1 | 12
O=C(CC1SC(=Nc2ccc(OC(F)F)cc2)N(CCN2CCOCC2)C1=O)Nc1ccccc1 (stereo not given) | 21
O=Nc1c2cc(-c3ccccc3)[nH]nc-2c2ccccc12 | 15
O=C1/C(=C/c2ccccn2)COc2ccccc21 | -15
O=C(/C=C/c1ccc(F)cc1)NC(=S)NNC(=O)c1cnccn1 | 16
Fc1ccc(NCc2n[nH]c(=S)n2Cc2ccccc2)cc1 | 6
Cc1onc(-c2c(Cl)cccc2Cl)c1C(=O)O/N=C(\C#N)c1ccccc1 | 17
Cc1ccccc1C1=N/C(=C/c2cccs2)C(=O)O1 | 9
O=C(CCn1c(=O)c2ccccc2n(Cc2cccc([N+](=O)[O-])c2)c1=O)N1CCc2ccccc2C1 | 13
CCNC(=O)NS(=O)(=O)c1cnccc1Nc1cccc(Cl)c1 | 5
Cc1nn(-c2ccccc2)nc1CNC(=O)c1ncoc1-c1ccccc1 | 9
CC12CCC(C(=O)Nc3nc4ccc(Br)cc4s3)(OC1=O)C2(C)C (stereo not given) | 10
CN(CC(=O)NC(=O)NCc1ccco1)CC(=O)Nc1ccccc1Cl | 25
COc1ccc(C2CC(C)=C(C#N)S(=O)(=O)C2C#N)cc1 (stereo not given) | 10
CCS(=O)(=O)c1ccc2c(c1)NC(=O)C(CCCl)O2 (stereo not given) | 12
CN=C1S/C(=C\c2ccc(N3CCCC3)c(F)c2)C(=O)N1C | 14
Cc1ccc(COc2ccc(/C=N/NC(=O)c3ccc(CN4CCOCC4)cc3)cc2)cc1 | 11
Cc1cc2nc(-c3ccc(SCc4ccc(C(=O)O)cc4)nc3)[nH]c2cc1C | 8
NS(=O)(=O)c1ccc(NC(=O)CN2CCCc3ccccc32)cc1 | 14
CCOC(=O)C1CCCN(Cc2cn[nH]c2-c2ccc(F)cc2F)C1 (stereo not given) | 3
CCN(CC)C(=O)Cn1cc(C(=O)C(=O)N2CCc3ccccc32)c2ccccc21 | 18

In the list so far, these have a nitro group on carbon.
SMILES | Biofilm kill mix
Cc1ccccc1NS(=O)(=O)c1cc(C(=O)Nc2cccc([N+](=O)[O-])c2)ccc1C | 14
O=C(CCn1c(=O)c2ccccc2n(Cc2cccc([N+](=O)[O-])c2)c1=O)N1CCc2ccccc2C1 | 13

Following part:
SMILES | Biofilm kill mix
O=C(N/N=C/c1ccncc1)c1nc2ccccc2c(=O)[nH]1 | 13
CCOC(=O)c1ccc(N2CCN(c3ccccc3F)CC2)c(NC(=O)Nc2ccccc2)c1 | -8
COc1ccc(NC(=O)c2c(NC(=O)CNCC(C)C)sc3c2CCC3)c(OC)c1 | 10
O=C(COc1ccc([N+](=O)[O-])cc1)Nc1cccnc1 | 0
COc1ccc(OCC(O)CNCCNc2nccc(C(F)(F)F)n2)cc1 (stereo not given) | 9
NS(=O)(=O)c1ccc(N/N=C/c2ccc(O)cc2O)c([N+](=O)[O-])c1 | 10
COCCNC(=O)/C(C#N)=C/c1cccs1 | 6
O=c1c2ccccc2nnn1Cc1ccc(F)cc1 | 7
COC(=O)Cc1c(C)[nH]n(-c2cc(Cl)cc(Cl)c2)c1=O | 17
CCCN(CC(=O)Nc1ccc(C(N)=O)cc1)CC(=O)Nc1cc(Cl)ccc1Cl | 18
Cc1ccccc1N=Nc1c(C)[nH]n(-c2ccccc2)c1=O | 20
CCCN1C(=O)/C(=C2/C=Cc3ccccc3N2CC)SC1=S | 8
Cn1c(CNC(=O)c2ccco2)nnc1SCC(=O)c1ccccc1 | 5
COc1cc(C(=O)/C=C/Nc2ccc(NC(C)=O)cc2)cc(OC)c1OC | 15
Cc1ccc(CNS(=O)(=O)NCc2ccc(Cl)cc2)cc1 | 0
CC(=O)N/N=C/c1cc(C(C)C)cc(/C=N/NC(C)=O)c1O | 5
Nc1nccnc1C(=O)OCC(=O)Nc1cccc(S(=O)(=O)N2CCCCC2)c1 | 6
C=CCN(CC=C)C(=O)c1ccc(OC2CCN(Cc3ccccn3)CC2)cc1 | 15
CCCC(=O)C1=C(O)C(C(=O)OC)C(C)(C)CC1=NC(C)C (stereo not given) | 13
O=c1c2sc3nc(N4CCOCC4)c4c(c3c2ncn1-c1ccccc1)CCCC4 | 18
COc1ccc(C(=O)NCc2nnc(SCC(=O)Nc3ccccc3OC)n2C)cc1 | 4
COc1cc(CNc2ccc(N3CCCC3)cc2)ccc1OCc1ccccc1F | 10
CC1CCN(CCOc2ccc(Cl)c(Cl)c2)CC1 | 13
CC(C)(C)c1ccc(C(=O)/C(C#N)=C/c2cccs2)cc1 | 15
Cc1cc(N)n(-c2ccc(S(=O)(=O)N3CCOCC3)cc2[N+](=O)[O-])n1 | 14

A second format for part of the listing above.
SMILES	Biofilm kill mix
CCS(=O)(=O)c1ccc2c(c1)NC(=O)C(CCCl)O2 (stereo not given)	12
CN=C1S/C(=C\c2ccc(N3CCCC3)c(F)c2)C(=O)N1C	14
Cc1ccc(COc2ccc(/C=N/NC(=O)c3ccc(CN4CCOCC4)cc3)cc2)cc1	11
Cc1cc2nc(-c3ccc(SCc4ccc(C(=O)O)cc4)nc3)[nH]c2cc1C	8
NS(=O)(=O)c1ccc(NC(=O)CN2CCCc3ccccc32)cc1	14
CCOC(=O)C1CCCN(Cc2cn[nH]c2-c2ccc(F)cc2F)C1 (stereo not given)	3
CCN(CC)C(=O)Cn1cc(C(=O)C(=O)N2CCc3ccccc32)c2ccccc21	18
O=C(N/N=C/c1ccncc1)c1nc2ccccc2c(=O)[nH]1	13
CCOC(=O)c1ccc(N2CCN(c3ccccc3F)CC2)c(NC(=O)Nc2ccccc2)c1	-8
COc1ccc(NC(=O)c2c(NC(=O)CNCC(C)C)sc3c2CCC3)c(OC)c1	10
O=C(COc1ccc([N+](=O)[O-])cc1)Nc1cccnc1	0
COc1ccc(OCC(O)CNCCNc2nccc(C(F)(F)F)n2)cc1 (stereo not given)	9
NS(=O)(=O)c1ccc(N/N=C/c2ccc(O)cc2O)c([N+](=O)[O-])c1	10
COCCNC(=O)/C(C#N)=C/c1cccs1	6
O=c1c2ccccc2nnn1Cc1ccc(F)cc1	7
COC(=O)Cc1c(C)[nH]n(-c2cc(Cl)cc(Cl)c2)c1=O	17
CCCN(CC(=O)Nc1ccc(C(N)=O)cc1)CC(=O)Nc1cc(Cl)ccc1Cl	18
Cc1ccccc1N=Nc1c(C)[nH]n(-c2ccccc2)c1=O	20
CCCN1C(=O)/C(=C2/C=Cc3ccccc3N2CC)SC1=S	8
Cn1c(CNC(=O)c2ccco2)nnc1SCC(=O)c1ccccc1	5
COc1cc(C(=O)/C=C/Nc2ccc(NC(C)=O)cc2)cc(OC)c1OC	15
Cc1ccc(CNS(=O)(=O)NCc2ccc(Cl)cc2)cc1	0
CC(=O)N/N=C/c1cc(C(C)C)cc(/C=N/NC(C)=O)c1O	5
Nc1nccnc1C(=O)OCC(=O)Nc1cccc(S(=O)(=O)N2CCCCC2)c1	6
C=CCN(CC=C)C(=O)c1ccc(OC2CCN(Cc3ccccn3)CC2)cc1	15
CCCC(=O)C1=C(O)C(C(=O)OC)C(C)(C)CC1=NC(C)C (stereo not given)	13
O=c1c2sc3nc(N4CCOCC4)c4c(c3c2ncn1-c1ccccc1)CCCC4	18
COc1ccc(C(=O)NCc2nnc(SCC(=O)Nc3ccccc3OC)n2C)cc1	4
COc1cc(CNc2ccc(N3CCCC3)cc2)ccc1OCc1ccccc1F	10

Other records follow:
SMILES | Biofilm kill mix
Cc1ccc(N(CC(=O)NCCSc2ccccn2)S(C)(=O)=O)cc1 | 27
COc1c2c(cc3oc(=O)ccc13)OC(C)(C)C=C2 | 17
O=C(NC(=S)NCC1CCCO1)c1ccccc1[N+](=O)[O-] (stereo not given) | 23
Cc1ccc(C(=O)Oc2ccc(C(=O)COC(=O)C3CC(=O)N(Cc4ccco4)C3)cc2)cc1 (stereo not given) | 14
COC(=O)N/N=C/c1cc(C)n(-c2ccc(F)cc2)c1C | 7
Cc1[nH]c2ccc(F)cc2c1CCNC(=O)C1CCCCC1C(=O)OCC(F)(F)F (stereo not given) | 13
Cc1ccc2c(COC(=O)CNC(=O)c3ccccc3)cc(=O)oc2c1 | 4
CCSC1=N/C(=C\c2cccc(F)c2)C(=O)S1 | -7
Cc1cc(C)n(C2CC(=O)N(c3cccc(Cl)c3)C2=O)n1 (stereo not given) | 13
O=C(CSCc1ccc([N+](=O)[O-])cc1)NN=C1CCCCCC1 | 10
COc1ccccc1OCCOCCOc1ccccc1Cl | -16
CC(C)COP(=O)(OCC(C)C)C(O)c1ccc2c(c1)OCO2 (stereo not given) | 18
CN(C)c1nc(C(=O)O)nc(N2CCOCC2)n1 | 24
O=C(Nc1cccnc1)/C(N=Nc1ccc(Cl)c(C(F)(F)F)c1)=C(\O)c1ccccc1 | -7
COC(=O)CC1C(=O)NCCN1C(=S)Nc1ccccc1Cl (stereo not given) | 12
CC(C)CC(NC(=O)C(CO)NC(=O)C1CCC(=O)N1)C(N)=O (stereo not given) | 15
CCC(C)/C=C/C1=CC2=C(Cl)C(=O)C3(C)OC(=O)C(C(=O)C(C)C(C)O)C3C2=CO1 (stereo not given) | 1
COc1cc(NC(=S)NCc2cccs2)cc(OC)c1 | 16
CC(C)C[C@H](NC(=O)OC(C)(C)C)c1n[nH]c(=S)n1N | 16
O=C(CCc1nnc(C2CCCCC2)o1)N1CCN(Cc2ccccc2)CC1 | 1
COc1ccccc1CCNC(=O)C(=O)NCC1OCCN1S(=O)(=O)c1ccc(Br)cc1 (stereo not given) | 14
CC(C)N1CCC(N2CCN(CC#Cc3ccccc3)CC2CCO)CC1 (stereo not given) | 9
CC(C)c1ccc2[nH]c(O)c(N=NC(=O)c3ccc(CSc4nncn4C)cc3)c2c1 | 4
O=C(Cc1cccs1)Nc1cccc(-c2nc3ccccc3[nH]2)c1 | 18
Cc1cc2cc(CNC(=S)NC3CCCCC3)ccc2n1C | 15

Next results follow.
SMILES | Biofilm kill mix
O=[N+]([O-])c1ccccc1/C=C/C=N/n1c(-c2cc(-c3ccccc3)n[nH]2)n[nH]c1=S | 12
NS(=O)(=O)c1ccc(NC(=O)/C=C/c2ccc3c(c2)OCO3)cc1 | 6
CC(CN1CCOCC1)OC(=O)C(c1ccccc1)c1ccccc1 (stereo not given) | 7
O=C(CCl)N(Cc1ccccc1)c1ccccc1 | 26
CCn1c(C(C)NC(=O)c2cccc(C)c2)n[nH]c1=S (stereo not given) | 15
Cc1cccc(N2CC(C(=O)O)CC2=O)c1C (stereo not given) | 17
O=C(NCc1ccccc1)c1cccc(NS(=O)(=O)c2cccc3cccnc23)c1 | 18
O=C(CSc1ncnc2ccccc12)NCCc1ccccc1 | 5
O=C(Nc1nc(-c2ccccc2)cs1)c1ccc(=O)[nH]c1 | 16
COCCCn1c(=O)/c(=C\c2ccccc2OC(F)F)s/c1=C(/C#N)C(N)=O | 0
CCNCc1cc(Br)c(OCC(=O)Nc2ccccc2)c(OC)c1 | 17
CC(=O)C1=C(C)NC(=O)CC1c1ccc(Br)cc1 (stereo not given) | 9
Cc1c(Cl)cccc1NCC(=O)NN=C1CCCC1 | 15
O=C(CN1C(=O)/C(=C/c2ccccc2)SC1=S)Nc1cccnc1 | 17
CN1CCN(NC(=O)c2cc(Br)ccc2Cl)CC1 | 15
O=C(COC(=O)c1cccc2c1C(=O)c1ccccc1C2=O)NC1CCCCC1 | 11
Cc1cccc(-n2cc(-c3ccccc3)c3c(=O)[nH]cnc32)c1 | 14
N#C/C(=C/c1ccc(N2CCCCC2)o1)C(=O)NCCc1c[nH]c2ccccc12 | 13
COc1ccc(NC(=O)c2ccc3nc[nH]c3c2)c(OC)c1 | 12
Oc1c(Cl)cc(Cl)cc1C=Nc1ccccc1N1CCCC1 | 9
O=C(CSc1ccccn1)Nc1cccc2ccccc12 | 20
Cc1ccc2[nH]cc(CCCN3C(=O)c4ccccc4C3=O)c2c1 | 13
c1cnc(N2CCN(Cc3ccc4c(c3)OCO4)CC2)nc1 | 13
CCOc1nc2ccccc2cc1C=O | 8
CC(=O)c1c(C)[nH]c(C(=O)COC(=O)c2cccc(S(=O)(=O)N(C)c3ccccc3)c2)c1C | 13

(listing goes on)
SMILES | Biofilm kill mix
C/C(CCc1ccccc1)=N\NC(=O)CCc1ccccc1 | 14
COc1ccc(NC(=S)N(CCN2CCCCC2)Cc2ccco2)cc1 | 13
Cc1nn(-c2ccccc2)c(Cl)c1/C=N/NC(=O)c1ccccc1F | 12
O=C(COc1ccccc1)OC(C(=O)c1ccccc1)c1ccccc1 (stereo not given) | 11
COc1ccc(/C=N/N=C(\N)c2nonc2N)cc1OC | 16
S=C(NCc1ccco1)N/N=C/c1ccncc1 | 19
O=C(Nc1ccccc1)Nc1cccc2ccccc12 | -12
Cc1ccc(N(C(=O)Nc2ccccc2)C2=NCCC2)cc1 | 4
Cc1ccc(NC(=O)N[C@H](C(=O)O)C(C)C)c(C)c1 | 22
CCCCCC(=O)NNC1=NCC(Cc2ccccc2)S1 (stereo not given) | 14
CCn1c(SCC(=O)O)nnc1-c1cccnc1 | 25
CC(=O)C1=C(c2ccccc2)OC(N)=C(C#N)C1c1ccccc1C (stereo not given) | 16
Cc1cc(C)cc(OCC(=O)OCC(=O)NCCC2=CCCCC2)c1 | 5
O=C(O)CSCc1nc2ccccc2[nH]1 | 18
O=C(CC1SC(=O)N(c2ccccc2)C1=O)Nc1cccc2ccccc12 (stereo not given) | 12
O=C(NCc1ccco1)c1ccc(COc2ccc(Cl)cc2)cc1 | 7
CNC(=O)/C(C#N)=C1\SC(Cc2ccc(F)cc2)C(=O)N1c1ccccc1C (stereo not given) | 10
CC(C)c1nc(CN2CCCCC2)cc(=O)[nH]1 | 11
CCN(CC)c1ccc(NC(=O)CSc2ccsc2[N+](=O)[O-])c(C)c1 | 13

Screening data: PubChem BioAssay, PCMD
